# Screening data from PubChem.
# MT1-MMP act inh: blocks activation of human MT1-MMP; GFP/RFP ratio change, % at 20 µM; 0.061% of 360,000 active; HT1080 RFP-PRO-GFP cells, GFP/RFP ratio fluorescence, overnight; percent of plate control window, DMSO zero;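 active means GFP/RFP ratio change of at least 30% with cell ATP level not reduced by more than half and red fluorescence within 50% of control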; further: strong numbers were not always called active
#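 system = RFP-PRO-GFP reporter HT1080 cells | dosing = 20 µM single dose, 1% DMSO | timing = overnight cell settling, then overnight compound exposure, 37 °C, 5% CO2 | read-out basis = GFP/RFP fluorescence ratio | controls = DMSO and RFP-L50D-GFP cell wells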
# Env fusion inh: blocks HIV Env-driven cell-cell fusion. inhibition, % at 12.3 µM. HeLa-JRFL Env/CEM21 cell fusion, luciferase. 1.1% of 360,000 active;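 active means mean replicate inhibition score of at least 50 and every replicate individually at or above 50; inconclusive means only one of the two criteria met; inactive means mean below 50 and not all replicates reaching 50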;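 further: 0% = plate neutral controls and 100% = maraviroc near 300 nM; one replicate is shown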
# PABP FP inh: blocks human PABP binding to poly(A) RNA. P11940. fluorescence polarization. inhibition, % at 35 µM. 1% of 290,000 active. AID 2014;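 active means 50% or more with normal probe brightness, or confirmed in later tests; inconclusive means above 50% with abnormal brightness, or retests that disagree; inactive means below 50% or failed in later tests; about a fifth of its hits are not listed in these tables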;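 further: calls also rest on retests at 20 µM and on dose response follow-up; controls were probe without protein and protein plus probe with vehicle; some compounds called inactive have numbers as strong as hits; many hits fall short of the cut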
# Target sequence (P11940 whole entry, looked up): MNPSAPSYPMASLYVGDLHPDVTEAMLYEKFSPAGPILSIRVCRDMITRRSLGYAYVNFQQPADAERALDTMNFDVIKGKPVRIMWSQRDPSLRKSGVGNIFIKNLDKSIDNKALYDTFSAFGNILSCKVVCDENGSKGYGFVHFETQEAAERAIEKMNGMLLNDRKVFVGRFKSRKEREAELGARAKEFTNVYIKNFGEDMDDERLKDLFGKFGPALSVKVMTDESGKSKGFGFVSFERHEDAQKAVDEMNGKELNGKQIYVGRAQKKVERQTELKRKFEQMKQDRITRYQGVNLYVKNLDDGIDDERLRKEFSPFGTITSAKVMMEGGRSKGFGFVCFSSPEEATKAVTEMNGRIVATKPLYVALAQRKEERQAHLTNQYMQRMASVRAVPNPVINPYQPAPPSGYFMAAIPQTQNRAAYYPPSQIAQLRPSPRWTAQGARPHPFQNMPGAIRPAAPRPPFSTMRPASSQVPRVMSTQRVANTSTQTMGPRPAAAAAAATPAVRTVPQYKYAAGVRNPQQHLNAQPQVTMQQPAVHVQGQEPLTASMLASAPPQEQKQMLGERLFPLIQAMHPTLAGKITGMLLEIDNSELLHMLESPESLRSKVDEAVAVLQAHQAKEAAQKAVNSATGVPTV
# Yeast UUG start: modulators of start codon recognition fidelity in yeast | S. cerevisiae UUG-firefly luciferase reporter, luminescence/redox ratio | AID 602363 | activity score, % at 18.7 µM | 0.13% of 350,000 active;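 active means replicate mean at a twofold rise or more, about +100% in these data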;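 further: firefly luciferase made from a UUG start codon reports start codon fidelity; reporter light over untreated wells divided by growth signal over untreated wells; some hits fall short of that in this replicate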
# eIF4H inh: inhibitors of RNA binding by human eIF4H | eIF4H fluorescence polarization binding assay | Q15056 | inhibition, % at 35 µM | AID 2012 | 0.94% of 290,000 active;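 active means 50% or more with normal probe brightness, or confirmed in later tests; inconclusive means above 50% with abnormal brightness, or retests that disagree; inactive means below 50% or failed in later tests; about a fifth of its hits are not listed in these tables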;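 further: calls also rest on retests at 20 µM and on dose response follow-up; 0% = protein and probe with vehicle and 100% = probe without protein; strong numbers were not always called active; many hits fall short of the cut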
# Rce1 inh: yeast Ras-converting enzyme inhibition; Q03530; yeast membranes, quenched prenylated peptide cleavage fluorescence; calls only; 0.27% of 290,000 active; AID 2563;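 active means fall in fluorescence gain of 50% or more versus controls, with final raw signal at or below 3038400; inconclusive means same 50% fall but final raw signal above 3038400; inactive means fall in fluorescence gain under 50%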;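 further: plate controls were neutral control wells for no effect and wells lacking membranes for full effect; tested at 10 µM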
# CSC inhib: blocks cancer stem cells; cancer stem cell-like cells viability, luminescence; inhibition, % at 7.5 µM; 1.1% of 300,000 active; AID 2717;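 active means mean at 75% or more and at least half the replicates too; inconclusive means mean and replicates disagree; tested in HMLE shEcad cells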;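 further: 0% = median of negative and 100% = median of positive control wells; the first replicate is given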
# MT1-MMP act inh RFP: further read-out of MT1-MMP act inh, marked with its call; RFP signal change, %; measured here: RFP expression control read;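 0 = vehicle wells; hits needed this value within 50% of zero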
# * marks the source's active call; other numbers are inactive results; i = inactive; ? = inconclusive; · = no result given; & = joins results of further samples; [ ] = remark or other dose.
SMILES,MT1-MMP act inh,MT1-MMP act inh RFP,Env fusion inh,PABP FP inh,Yeast UUG start,eIF4H inh,Rce1 inh,CSC inhib
COc1cc(-c2nnc(CSc3nnc4nc(C)cc(C)n34)o2)cc(OC)c1OC,-3,-1,-23,-2,-19,-1,i,-5
O=C(c1[nH]c(C(F)(F)F)nc1-c1ccccc1)N1CCN(c2ccccn2)CC1,2,0,-36,·,-9,·,·,·
CN(Cc1ccco1)C(=O)CSc1nc(C2CC2)n(-c2ccccc2)n1,-3,0,-7,·,-4,·,·,·
CSc1ncccc1C(=O)OCC(=O)N1CCN(C(=O)c2ccco2)CC1,2,6,·,·,10,·,·,13
CN1CCN(c2ccc(S(=O)(=O)N3CCOCC3)cc2NC(=O)Cc2ccccc2F)CC1,-3,4,-12,·,-7,·,·,·
COC(=O)c1ccc2nc3c(cc2c1)[C@@H]1CCN2C(=O)CCC[C@H](C3)[C@H]12,0,-2,-17,·,-18,·,·,·
COc1ccc(/C(N)=N/OC(=O)/C=C/c2ccccc2)cc1,5,-1,-2,-3,-14,3,i,-3
Cc1ccccc1C(=O)NC(=S)Nc1ccc(S(=O)(=O)N(C)c2ccccc2)cc1,6,-12,·,22,-12,-1,i,4
COc1cccc(C(=O)C2CCCN(Cc3cccc(-n4cccn4)c3)C2)c1 (stereo unspecified),3,0,7,-3,-11,0,i,11
COc1cc(NC(=O)c2ccccc2-c2ccccc2)cc(OC)c1OC,·,·,·,-3,·,-2,i,-1
CCOC(=O)C1=C(CN2CCc3ccccc32)NC(=O)NC1c1cc(C)ccc1C (stereo unspecified),-9,-2,-14,·,-7,·,i,9
CN1CCN(c2ccc(S(=O)(=O)N3CCCCC3)cc2NC(=O)CSCc2ccccc2)CC1,-6,1,-16,24,-6,0,i,-3
COC(=O)c1sccc1NC(=O)CC1C(=O)NCCN1C(=O)Nc1ccc(C(F)(F)F)cc1 (stereo unspecified),4,-3,30,-1,1,8,i,-16
CCC(=O)N1N=C(c2c(-c3ccccc3)c3cc(Cl)ccc3[nH]c2=O)CC1c1ccco1 (stereo unspecified),-9,-8,-41,-1,·,-6,i,·
Cc1cc(C)c(C)c(S(=O)(=O)Nc2ccc3cn[nH]c3c2)c1C,-12,-23,·,·,-12,·,·,-13
Cc1ccc(NC(=S)N2C3CCCC2CC(NC(=O)C2CC2)C3)cc1C (stereo unspecified),1,0,-1,-3,-18,-10,i,4
Cc1ccc2c(CSc3nnc(C4CC4)n3N)cc(=O)oc2c1C,-2,1,-64,0,-13,1,i,-6
O=C(O)CCN1C(=O)CC(N2C(=O)/C(=C/c3ccc(Cl)cc3)SC2=S)C1=O (stereo unspecified),7,9,·,20,·,-10,i,·
Nc1nc(-c2ccccn2)nc(N)c1Cc1c(F)cccc1Cl,1,-10,30,-3,·,14,i,5
Cc1ccc(C(=O)Nc2nncs2)cc1S(=O)(=O)N1CCOCC1,1,2,47,6,-13,3,i,-12
O=C(CN1CCN(c2ccccc2Cl)CC1)NC1CCCc2ccccc21 (stereo unspecified),0,3,·,47,-15,-11,i,-7
CCN(CC)c1ccc(C(=O)OCC(=O)N(C(C)C)C(C)C)cc1,6,5,10,3,·,3,i,2
CNc1ccccc1C(=O)OCC(=O)c1ccccc1,2,1,-29[16.7 µM],-4,-26&-12,6,i,-12
CCCCCCOC(=O)c1ccc(OC(=O)c2cccnc2)cc1,-1,1,·,-3,-2,-13,i,0
O=C(c1ccc(Br)cc1)C(CN1CCOCC1)c1ccccc1 (stereo unspecified),-14,-27,-38,2,-12,-8,i,68
CC(=O)c1cc(C#N)c(SCC(=O)C(C)(C)C)nc1C,4,0,-96,-5,-9,3,i,11
O=c1oc(CCO)cc2ccc(Br)cc12,4,7,-154,·,-34,·,·,·
COc1ccc(C(=O)CN(Cc2ccccc2)C2=NCCS2)cc1,-1,4,·,-6,·,-8,i,0
O=C(COC(=O)c1cc(=O)[nH]c2ccccc12)NC(=O)NC1CCCCC1,-5,-3,-27,3,-3,0,i,-1
CCOC(=O)Cc1csc(NC(=O)c2ccc(S(=O)(=O)N3CCCC3)cc2)n1,11,-11,24,-7,-4,-8,i,0
CCCOc1ccc(-c2c(=O)n(OCC(=O)OCC)c3ccccc3[n+]2[O-])cc1,5,2,-63,8,-24,-13,i,25
O=C(Nc1ccc([N+](=O)[O-])cc1)c1cc2ccccc2nc1Cl,0,-11,11,-6,·,2,i,0
Cc1nc2ccc(S(=O)(=O)N(C)CC(=O)N3CCc4ccccc4C3)cc2s1,0,-2,·,2,3,1,i,-5
CCN(C(=O)CN1CCN(c2ccccc2F)CC1)c1c(N)n(Cc2ccccc2)c(=O)[nH]c1=O,2,5,6,0,·,4,i,-2
CCC1CCC2(CC1)NC(=O)N(CC(=O)Nc1ccc(OC)cc1)C2=O (stereo unspecified),9,2,-3,·,-21,·,·,·
O=C(Oc1ccc(Cl)c2cccnc12)N1CCCCC1,7,-5,·,2,·,1,i,-5
Cc1ccc(N(CCC#N)C(=O)COC(=O)C2CCN(c3ccc(C(F)(F)F)cn3)CC2)cc1,-3,-1,-1,·,3,·,i,·
Clc1ccc(-c2nnnn2-c2ccc(Cl)c(Cl)c2)cc1Cl,-1,-10,·,-19,-14,-13,i,?
COc1ccc(CCNC(=O)C2=CC=CN3CCS(=O)(=O)N=C23)cc1,2,4,-3,·,2,·,·,·
O=C(/C=C/c1cccs1)NCc1cccnc1,6,2,6,-1,-16,-6,i,-10
CC(C)C(c1nnnn1Cc1ccc(F)cc1)N1CCN(Cc2ccc3c(c2)OCO3)CC1 (stereo unspecified),1,-1,·,-5,-10,-6,i,17
CCOc1c(C)cc2[nH]c(CCC(=O)O)nc2c1C,2,1,·,3,-22,-10,i,-8
COc1ccc(C(C(=O)NC2CCCC2)N(C(=O)c2ccco2)c2cc3c(cc2C(C)=O)OCO3)cc1 (stereo unspecified),-4,1,-12,14,-10,3,i,13
C=CCn1nnc2sc3c(c2c1=O)CCC(C)C3 (stereo unspecified),1,-1,·,-10,·,-3,i,-5
CN(Cc1c(F)cccc1Cl)C(=O)c1ccc(COc2ccccc2)cc1,-2,-4,6,29,-8,5,i,10
O=C(COc1ccc(S(=O)(=O)N2CCc3ccccc32)cc1Cl)NCc1ccccn1,-3,-5,·,3,-7,-12,i,2
O=C(COC(=O)c1ccc[nH]c1=O)NC1CCCCC1,2,2,4,-4,0,-7,i,-16
O=C(NCCN1C(=O)C2C3C=CC(C3)C2C1=O)Nc1ccccc1O (stereo unspecified),1,4,13,-2,6,-6,i,-24
O=Cc1cc(Cl)ccc1OCCN1CCC(Cc2ccccc2)CC1,-2,-2,6,-5,-14,3,i,37
Cc1ccc(-n2c(C)cc(C(=O)OCC(=O)N(C)C3CCS(=O)(=O)C3)c2C)cc1 (stereo unspecified),3,3,·,7,-2,-6,i,-6
CCOC(=O)C1CCN(c2ccc([N+](=O)[O-])c(C(C)=O)c2)CC1,6,-1,4,-8,-22,-13,i,·
Cc1onc(-c2ccccc2)c1C(N)=O,6,8,·,-4,-16,-6,i,-1
CCSc1nnc(NC(=O)CCNC(=O)c2ccccc2Cl)s1,1,1,·,·,-12,·,·,9
O=C(CCC(=O)N1CCN(S(=O)(=O)c2ccc(Cl)cc2)CC1)NC1CCCc2ccccc21 (stereo unspecified),-3,-5,-94,5,-16,-1,i,-7
COc1cc(-c2noc(CCCC(=O)Nc3ccc(C(N)=O)cc3)n2)cc(OC)c1OC,4,1,11,0,3,14,i,-14
Cc1ccc(OCCNC(=O)C(=O)NCc2ccco2)cc1,-3,-10,-83,-6,·,-1,·,·
Cc1ccc(S(=O)(=O)N2CCOCC(=O)NCCOCCNC(=O)COCC2)cc1,3,6,·,-4,-14,-1,i,·
CC(C)(C)NC(=O)c1ccc2c(c1)CCO2,-7,-3,-2,5,·,-7,i,-11
O=C(CCc1nc(-c2ccccc2Cl)no1)NCC1CCCO1 (stereo unspecified),1,3,11,1,-3,-5,i,-5
COc1ccc(NC(=O)c2ccc3c(c2)OCO3)cc1[N+](=O)[O-],0,-4,-41,-2,·,0,i,·

# Entries of single compounds as entered above. Order of values: MT1-MMP act inh	MT1-MMP act inh RFP	Env fusion inh	PABP FP inh	Yeast UUG start	eIF4H inh	Rce1 inh	CSC inhib
# Profile of COc1cc(-c2noc(CCCC(=O)Nc3ccc(C(N)=O)cc3)n2)cc(OC)c1OC = 4	1	11	0	3	14	i	-14
# Profile of CCOC(=O)C1CCN(c2ccc([N+](=O)[O-])c(C(C)=O)c2)CC1 = 6	-1	4	-8	-22	-13	i	·
# Profile of COc1ccc(NC(=O)c2ccc3c(c2)OCO3)cc1[N+](=O)[O-] = 0	-4	-41	-2	·	0	i	·
# Profile of Cc1ccc(-n2c(C)cc(C(=O)OCC(=O)N(C)C3CCS(=O)(=O)C3)c2C)cc1 (stereo unspecified) = 3	3	·	7	-2	-6	i	-6

# Carrying on:
SMILES,MT1-MMP act inh,MT1-MMP act inh RFP,Env fusion inh,PABP FP inh,Yeast UUG start,eIF4H inh,Rce1 inh,CSC inhib
CC(C)=CC(=O)N1CCCc2ccccc21,2,4,·,-4,-33,2,i,-7
Cc1nnc(C)c2c(C)n(Cc3ccc4c(c3)OCO4)c(C)c12,-20,-6,?,3,-15,9,i,-15
O=C(CCN1CCCCC1)Nc1ccc(Br)cc1,10,3,-27,-4,·,-7,i,5
Cc1ccc(C)c(NC(=O)C(OC(=O)c2ccc(C)s2)c2ccccc2)c1 (stereo unspecified),-7,-4,31,-4,-10,2,i,0
Cc1nn(-c2ccccc2)cc1/C=N/O,2,3,-59,-1,-13,1,i,-14
O=C(Nc1ccccc1N1CCCC1)c1cccc(-c2cc3ccccc3oc2=O)c1,2,-4,14,0,-5,26,i,90*
Cc1nc2nc(SCC(=O)Nc3cccc(F)c3)[nH]c2cc1Br,-2,-8,-4,-5,·,-12,i,3
CC(=O)N1CCc2cc(NC(=O)C3(C)CCN3Cc3ccccc3OC(F)F)ccc21 (stereo unspecified),4,0,-10,·,20,·,·,·
CC(=O)N1CCN(c2ccc(NCc3ccc(C)s3)cc2)CC1,7,1,·,-1,-32,-1,i,-20
CCc1ccc(/C=N/NC(=O)Cc2cccn2C)cc1,1,0,-22,-4,·,7,i,-10
COc1ccc2c(c1)CC[C@@H]1[C@@H]2CC[C@]2(C)[C@@H](C(=O)O)C[C@@H]12,2,5,-4,·,-25,·,i,-9
O=C(OCCO)c1cc(Cl)c(C(=O)OCCO)cc1Cl,2,2,·,-4,-13,-8,i,·
CC(C)N(Cc1ccccc1)C(=S)NC(=O)C1(C)CC1(Cl)Cl (stereo unspecified),2,0,25,-3,·,3,i,6
COc1ccc(-n2nnc3c(=O)n(C/C=C/c4ccccc4)cnc32)cc1,-2,1,9,-3,-11,-2,i,-4
COc1ccc(CNC(=O)C(OC(C)=O)c2ccccn2)cc1 (stereo unspecified),6,6,·,4,-15,0,i,12
NC(c1ccccc1)c1csc(Nc2ccc(S(N)(=O)=O)cc2)n1 (stereo unspecified),-4,2,18,·,-22,·,·,·
CN1CCN(S(=O)(=O)c2ccc(NC(=O)C3CCCO3)cc2)CC1 (stereo unspecified),7,2,3,7,-16,2,i,-7
CC(O)(c1ccc(F)c(F)c1)c1nc(-c2ccc(Cl)cc2)cs1 (stereo unspecified),3,-3,-1,·,-10,·,·,·
COc1ccc(/C=N/NC(=O)c2cccc(NC(C)=O)c2)c(C(=O)O)c1OC,-5,-4,5,-3,-14,-9,i,12
CCOCCCNc1nc2c(C)cccn2c(=O)c1/C=C1\SC(=S)N(CC(C)C)C1=O,-50,-2,-14,?,·,?,i,-5

# An excerpt; rates above refer to the full screens.
